# miR-21 FLuc: qHTS Assay for Modulators of miRNAs and/orActivators of miR-21 | 340,000 tested, under 10 active | HeLa miR-21 FLuc reporter, luciferase, 48 h | Potency, µM (highest dose often 38.3 µM), for the others: at the highest dose reporter change, positive = more light; active = well fitted rising curve with a large enough effect; inconclusive = small, poorly fitted or top-dose-only effect; inactive = no such curve, though single readings can be large or run the other way;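 note: % of control where 0% means no effect; miR-21 action dims this reporter so a rising signal means less miR-21 action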
#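 HeLa miR-21-FLuc reporter line, endogenous miR-21; 2000 cells/well in DMEM/10% FBS; compound titration up to ~40uM final, 48 h, 37 degree Celsius; luciferase detection reagent, 15 min lysis, CCD luminescence.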
# GLA inh pH 4.5: qHTS Assay for Inhibitors of Human alpha-Galactosidase at pH 4.5 | Alpha-galactosidase A (Homo sapiens), P06280 | purified enzyme, 4-MU-alpha-Gal fluorescence, pH 4.5 | activity change, negative = inhibition, % at 105 µM | 230,000 tested, under 10 active | AID 1467, 2008; inconclusive = small, poorly fitted or top-dose-only inhibition, or a rising curve; inactive = flat fitted curve, though single readings scatter; no compound was filed as active;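 note: 0% = full activity with enzyme and -100% = basal without enzyme; dose as in the result columns while the protocol names 77 µM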
# Target sequence (P06280 whole entry, looked up): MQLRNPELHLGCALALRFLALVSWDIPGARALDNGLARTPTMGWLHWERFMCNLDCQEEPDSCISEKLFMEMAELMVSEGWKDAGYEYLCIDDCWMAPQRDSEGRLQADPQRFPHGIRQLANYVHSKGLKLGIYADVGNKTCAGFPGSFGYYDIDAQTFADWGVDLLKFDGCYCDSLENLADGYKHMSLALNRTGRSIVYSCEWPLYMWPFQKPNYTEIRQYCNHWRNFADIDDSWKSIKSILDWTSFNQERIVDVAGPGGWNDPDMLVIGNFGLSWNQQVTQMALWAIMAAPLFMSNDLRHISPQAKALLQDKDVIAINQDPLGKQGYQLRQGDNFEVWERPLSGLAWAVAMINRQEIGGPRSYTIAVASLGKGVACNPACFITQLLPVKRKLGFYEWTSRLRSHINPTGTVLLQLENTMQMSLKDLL
# Rango dissoc inh: qHTS Assay for Inhibitors of RanGTP induced Rango (Ran-regulated importin-beta cargo) - Importin beta complex dissociation | Snurportin-1 (Homo sapiens) + GTP-binding nuclear protein Ran (Homo sapiens) + Importin … | Biochemical FRET Rango-importin beta, RanGTP-induced dissociation | Potency, µM (titrated, usually from 46.1 µM), for inactives: top-dose activity change, negative = inhibition | 340,000 tested, 0.071% active | AID 540253, 2011; active means falling FRET ratio curve, often poorly fitted, with flat reads before Ran was added; inconclusive means other falling curves, or compound fluorescence or quenching; inactive means flat or rising ratio curve;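 note: potency is the fitted concentration of half-maximal effect; % of control where 0% means no effect; nearly all actives have a fitted effect of over 45% in size; -100% = wells without RanGTP and RCC1; the record marks most hits as doubtful in a second field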
#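 Rango/importin beta premix (0.1/0.25 uM final), PBS + 1 mM DTT + 0.02% Tween-20 + 0.1% BSA; cpd 5 min RT; FRET pre-read; + RanGTP-RCC1 (0.6 uM Ran, 2 mM GTP, 0.2 uM RCC1); 45 min RT; FRET post-read, ex 430, em 486/530 nm.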
# Rango complex inh: qHTS Assay for Inhibitors of Rango (Ran-regulated importin-beta cargo) - Importin beta complex formation. Rango CFP/YFP FRET sensor + importin beta, 45 min. Importin subunit beta-1 (Homo sapiens), Q14974. Potency, µM (series often up to 92.2 µM), for the others: top-dose inhibition of complex formation. 340,000 tested, 0.031% active. AID 540263, 2011; active = rising FRET ratio curve, often small or poorly fitted; inconclusive = mostly compound fluorescence or quenching in the first reads; inactive = flat curves in all reads;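 note: potency is the fitted concentration of half-maximal effect; 0% = DMSO wells and 100% = buffer wells lacking importin beta; nearly all actives have a fitted effect of over 15% in size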
#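 Inhibition scored from the CFP 486 nm/YFP 530 nm FRET ratio 45 min after adding 0.125 microM importin beta to 50 nM Rango biosensor preincubated 5 min with compound (room temperature, PBS with DTT, Tween-20, BSA). No-importin wells as positive control.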
# * hit, by the source's call; u = inconclusive; x = no result given; & = joins results of further samples. A portion of the library; rates above refer to the full screens.
SMILES,miR-21 FLuc,GLA inh pH 4.5,Rango dissoc inh,Rango complex inh
O=C(O)c1c(C(=O)O)c(-c2ccc(F)cc2)n2c1CCC2,1%,x,13%,0.9%
Cc1c(N2C(=O)c3cccc4cccc(c34)C2=O)cnn1C,-17%,-5,1%,3.5%
C#CCNC(=O)C(C)c1ncc(C(F)(F)F)cc1Cl (configuration not stated),0%,12,-5%,-1.0%
CC(C)C(=O)Nc1cccc(C(=O)Nc2ccc(S(=O)(=O)Nc3nccs3)cc2)c1,-7%,x,2%,0.9%
Cc1sc2ncn(CC(=O)N3CCCC(C)C3)c(=O)c2c1S(=O)(=O)N1CCCCC1 (configuration not stated),1%,x,-2%,-2.4%
Cc1nn(-c2ccccc2)c2nc(C(F)F)cc(C(F)F)c12,x,x,-3%,-0.5%
CCC(CC)C1=NN2C(=N)/C(=C\c3cc(C)n(-c4cccc(C)c4)c3C)C(=O)N=C2S1,4%,-3,23%,0.5%
CCc1c(C)nc2c(C#N)c(C)[nH]n2c1=O,3%,-9,15%,-2.1%
Cc1cc(/C=C2\SC(=S)N(Cc3ccco3)C2=O)c(C)n1-c1cccnc1,-11%,-2,u,u
CCOC(=O)N1CCN(C(=O)c2ccc3c(=O)n(Cc4ccccc4)c(=S)[nH]c3c2)CC1,2%,-24,13%,0.3%
CC1(C)NC(=O)N(CC(=O)N2CCN(S(=O)(=O)c3ccccc3C(F)(F)F)CC2)C1=O,x,x,2%,-5.9%
CN(C)S(=O)(=O)c1cccc(C(=O)NCC2CCCCC2)c1,-11%,x,9%,-1.6%
CN(C)S(=O)(=O)c1ccc(C(=O)NCc2ccco2)cc1,-2%,4,-1%,-3.7%
CC1(c2ccc(OC(F)F)cc2)NC(=O)N(CC(=O)Nc2ccc(OC(F)F)cc2)C1=O (configuration not stated),22%,x,-2%,-3.9%
COC(=O)[C@@H](Cc1ccccc1)NC(=O)CC[C@H]1O[C@@H](n2cc(C)c(=O)[nH]c2=O)C[C@@H]1O,x,x,-1%,-1.5%
CSc1ncccc1C(=O)NC1CCN(Cc2ccccc2)CC1,-6%,x,16%,-1.2%
Cc1cccc(N2CCN(C(=O)c3ccc(NC(=O)CC4SC(N5CCCC5)=NC4=O)cc3)CC2)c1C (configuration not stated),x,x,-1%,-3.6%
COc1cc2c(cc1O)C(SC)=NC(C)(C)C2,17%,-1,-11%,0.5%
O=C(CSc1ccc(-c2ccc(Br)cc2)nn1)N1CCOCC1,-5%,8,-6%,2.0%
O=C(CCC(=O)Nc1ccccc1Cl)NNC(=O)COc1ccc([N+](=O)[O-])cc1,x,x,-6%,0.8%
O=[N+]([O-])c1cccc(CSC2=NCCN2S(=O)(=O)c2ccccc2)c1,-11%,x,0%,1.1%
COc1ccc(NS(=O)(=O)c2cc(NC(=O)C3CC3)ccc2N2CCOCC2)cc1,-1%,-1,-7%,-2.2%
COC(=O)C/C=C/[C@@H](C)[C@@H](/C=N/OC[C@H]1O[C@H](c2ccccc2)C=C[C@@H]1Oc1ccc(OC)cc1)OC,-8%,1,x,x
CCOc1ccc(NC(=O)CN2C(=O)C3CCCN3C2=O)cc1 (configuration not stated),-18%,5,25%,3.3%
COc1ccc(NC(=O)NNC(=O)c2ccc(Cl)cc2Cl)cc1OC,0%,2,-3%,-3.1%
# The list continues:
SMILES,miR-21 FLuc,GLA inh pH 4.5,Rango dissoc inh,Rango complex inh
Cc1ccc2c(Cl)cc(Cl)c(OCC(=O)Nc3cccc(S(=O)(=O)N(C)C)c3)c2n1,0%,7,8%,5.5%
Fc1cccc(Cl)c1CNc1ccc(N2CCCC2)cc1,-8%,-2,-18%,u
CC(=O)Nc1ccc(S(=O)(=O)N(C2=NCC(C)S2)c2ccccc2)cc1 (configuration not stated),-2%,-4,0%,-0.6%
O=C(c1ccccc1-n1cccc1)N1N=C(C(F)F)CC1(O)C(F)F (configuration not stated),-6%,2,37%,-2.3%
O=C(c1ccc(F)cc1F)N1CCCC(c2nc(-c3ccc(F)cc3)no2)C1 (configuration not stated),13%,x,13%,1.1%
CC(C)C[C@H]1COCCS(=O)(=O)N1Cc1cccc(Cl)c1,x,x,5%,3.5%
COC(=O)c1ccc(NC(=O)Nc2ccc(F)cc2)cc1,6%,7,19%,3.5%
Cc1ccc(C2C3=C(CC(C)(C)CC3=O)N=C3c4ccccc4C(=O)C32)cc1 (configuration not stated),19%,-14,-25%,u
CCc1nnc(NS(=O)(=O)c2ccc(NC(=O)c3cccc(Cl)c3)cc2)s1,-4%,-3,4%,0.1%
COc1ccc2[nH]c(C(=O)N3CCNCC3)cc2c1OC,5%,x,17%,0.8%
c1ccc(CSCCc2ccncc2)cc1,-11%,4,-1%,2.2%
CC(=O)Oc1ccc(C(=O)[C@H]2[C@H]3C(=O)N(c4ccc(C)cc4)C(=O)[C@H]3[C@@H]3C=CC=NN32)cc1,-49%,-1,3%,1.7%
CC1CCN(C(=O)c2nc[nH]c2C(=O)O[C@H](C)c2ccccc2)CC1,x,x,5%,0.0%
CCCCCn1c(=O)c(F)cn(Cc2ccc(OC)c([N+](=O)[O-])c2)c1=O,-21%,-1,14%,-0.9%
O=C(NNS(=O)(=O)c1ccc(F)cc1)c1cccc(O)c1,1%,x,-12%,-1.1%
OCC[C@H]1C[C@H](O)[C@@H](O)[C@@]2(Cc3ccccc3CCO2)O1,x,x,2%,1.1%
CN(CC1CCN(CCc2cccc(C(F)(F)F)c2)CC1)C(=O)c1ccc(F)cc1F,11%,x,-18%,-1.8%
Cc1cc(C(=O)N(C)C)sc1-c1ccccc1,-65%,1,8%,-0.1%
Cc1nc2ccc(NC(=O)Cc3ccc(Br)cc3)cc2s1,-29%,6,1%,-2.2%
CCOC(=O)c1sc2nc(CC(=O)OC)nc(NCc3ccc(F)cc3)c2c1C,-4%,-30,0%,0.1%
O=C(Cc1ccc(Br)cc1)Nc1ccc2[nH]ncc2c1,-17%,x,20%,2.7%
CC(C)c1nnc(NC(=O)Cc2ccccc2[N+](=O)[O-])s1,-28%,4,11%,-1.6%
O=S(=O)(Nc1ccc(Cc2ccncc2)cc1)c1cccs1,-2%,2,-2%,u
Cc1ccc(-n2nc3c(N4CCC(C(=O)NCCc5ccccc5C)CC4)nnc(C)c3c2C)cc1,0%&-5%,x,3%,1.6%
CN(/N=C/c1ccc([N+](=O)[O-])o1)c1ccccc1,-18%,-21,-13%,1.7%
# Following part
SMILES,miR-21 FLuc,GLA inh pH 4.5,Rango dissoc inh,Rango complex inh
Cc1ccc(S(=O)(=O)N2CCN(C(=O)COC(=O)Cc3cccc(C(F)(F)F)c3)CC2)c(C)c1,x,x,14%,0.2%
CCn1ncc(/C=N\NC(=O)c2csc3ccccc23)c1C,-3%,4,14%,1.5%
O=C(c1ccccc1F)N1CCN(c2cnn(-c3cccc(Cl)c3)c(=O)c2Cl)CC1,0%,-12,2%,-3.0%
COc1ccccc1C(=O)NC(=O)CSc1nncn1C,x,x,-2%,-2.1%
CCc1ccc(NC(=O)COC(=O)/C=C/c2ccco2)cc1,x,x,-10%,u
CC1CCN(S(=O)(=O)c2ccc(Cl)s2)CC1,x,x,0%,0.1%
CC1CCC(NCC(=O)Nc2cccc(S(N)(=O)=O)c2)CC1 (configuration not stated),1%,-5,14%,7.2%
CS(=O)(=O)NCCNC(=O)c1cc(OCC(F)(F)F)ccc1OCC(F)(F)F,-4%,3,2%,-0.8%
Cc1ccc2[nH]c3c(=O)n(CCCN4CCN(C)CC4)cnc3c2c1,-2%&-13%,0&1,22%,6.6%
O=C(CNC(=O)c1ccc(Cl)cc1)c1ccccc1,x,x,6%,-0.6%
Cc1nc(NC(=O)c2ccco2)sc1-c1csc(Nc2ccc(Cl)cc2)n1,10%,14,-18%,u
COc1ccccc1/C=C/C(=O)NCC(=O)N/N=C/c1ccc(C)o1,-2%,x,7%,1.2%
O=C(OCC(=O)N1CCc2ccccc2C1)c1c(F)cccc1Cl,x,x,1%,-3.0%
CCc1nc(NC(=O)Cc2csc(C)n2)sc1C(=O)OC,-2%,x,-13%,-0.2%
S=C(NCCc1ccccn1)Nc1ccc(Cl)cc1,-50%,-2,13%,0.1%
CCOc1c(C(=O)CC)cc2c(C)cc(=O)oc2c1C,5%,-3,19%,4.6%
CCN(CC)CCN(C(=O)c1ccc([N+](=O)[O-])cc1)c1nc2c(OC)cccc2s1,-6%,-3,-12%,-1.6%
CN(C)c1ccc(N=Nc2ccccc2C(=O)OCC(=O)N(C)C2CCCCC2)cc1,-28%,-8,13%,8.0%
Cc1nc(SCC(=O)CC(=O)OC(C)C)c(C#N)c(C)c1C,-21%,-12,u,u
O=C(Nc1ccncc1)Nc1cccc(F)c1,-17%,x,2%,0.1%
CCn1cc(/C=N/O)c(C)n1,-8%,3,-8%,3.1%
Cc1cccc(N2CC(C(=O)Nc3nnc(SCC(=O)Nc4nccs4)s3)CC2=O)c1 (configuration not stated),-3%,-2,4%,2.2%
Cn1c(CN2CCN(C(=O)c3ccccc3)CC2)nc2cc([N+](=O)[O-])ccc21,-24%,1,-10%,0.1%
CCCCC(=O)Nc1ccc(NC(=O)c2cnccn2)cn1,-32%,7,2%,-3.4%
N#Cc1c(/N=C\c2ccc(O)c([N+](=O)[O-])c2)sc2c1CCCC2,-23%,9,0%,1.7%

# An excerpt of these results, with two lines to a compound.
# Screens in order: miR-21 FLuc	GLA inh pH 4.5	Rango dissoc inh	Rango complex inh
COc1cc2c(cc1O)C(SC)=NC(C)(C)C2
→ 17%	-1	-11%	0.5%
O=C(CSc1ccc(-c2ccc(Br)cc2)nn1)N1CCOCC1
→ -5%	8	-6%	2.0%
O=C(CCC(=O)Nc1ccccc1Cl)NNC(=O)COc1ccc([N+](=O)[O-])cc1
→ x	x	-6%	0.8%
O=[N+]([O-])c1cccc(CSC2=NCCN2S(=O)(=O)c2ccccc2)c1
→ -11%	x	0%	1.1%
COc1ccc(NS(=O)(=O)c2cc(NC(=O)C3CC3)ccc2N2CCOCC2)cc1
→ -1%	-1	-7%	-2.2%

# Going on with the list.
SMILES,miR-21 FLuc,GLA inh pH 4.5,Rango dissoc inh,Rango complex inh
CNc1nc(-c2ccccc2)[n+](-c2ccc(C)cc2)s1,-31%,4,8%,-5.0%
CN(C)C=NC(=O)c1cc(C(=O)c2ccc(Cl)cc2)c[nH]1,0%,5,-1%,4.5%
COc1ccc(-c2nc(CCl)cs2)cc1,-43%,-3,-4%,-1.4%
COc1ccc(-c2noc(=O)n2Cc2ccccc2Cl)cc1,1%,x,-5%,-0.8%
O=C(Nc1ccc(Nc2ccccc2)cc1)c1ccco1,-45%,1,-7%,1.9%
CC(C)CCNC(=O)NC(=O)CSc1nnc(-c2ccccc2Br)o1,-3%,0,-26%,-0.4%
COc1ccc(-c2nnc3ccc(SCC(N)=O)nn23)cc1OC,-5%,1,4%,0.0%
CCOC(=O)c1cc(C#N)c(SCC(=O)O)[nH]c1=O,-2%,-4,2%,-3.7%
O=c1[nH]nc(N/N=C/c2ccccc2OC(F)F)c(=O)[nH]1,1%,-1,-13%,-2.1%
O=C1CCCc2c1nc(-c1ccccc1)n2O,-3%,-11,5%,-0.8%
Cc1ccc(-n2ncc3c(=O)n(CC(=O)N(C)C)cnc32)cc1C,-30%,x,-3%,2.2%
CN(C(=O)CCN1C(=O)c2ccccc2C1=O)c1ccccc1,-4%,x,-5%,-1.5%
CCOP(=O)(OCC)C(O)c1cc(OC)c(OC)c(OC)c1 (configuration not stated),-1%,-3,2%,-1.6%
C=CCN(CC=C)C(=O)Nc1ccc2nc(C)sc2c1,-33%,5,u,u
O=c1oc2ccccc2n1CCn1c2ccccc2c2nc3ccccc3nc21,-4%,1,u,u
Cc1ccc(C(=O)N/C(=C\c2cn(S(=O)(=O)N(C)C)c3ccccc23)C(=O)NCCCN2CCOCC2)cc1,-3%,x,-13%,3.2%
S=C(c1ccc2c(c1)OCO2)N1CCN(c2cccc(Cl)c2)CC1,x,x,-4%,-1.7%
